Screening data as filed in PubChem BioAssay.
Six1-Eya2 blk – Six1/Eya2 interaction inhibition. Q15475+O00167. AlphaScreen GST-Six1/His-Eya2 binding, biochemical; stronger effect = lower value; control for the full effect not named in the record. activity change, % (concentration not given with the values). 360,000 tested, 0.56% active. AID 651725; in the data active = activity change below about -65%; inconclusive = about -30% to -65%; inactive = above about -30%; note: % is set by controls: 0 for no effect and ±100 for the full control effect
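Homogeneous AlphaScreen proximity assay pairing GST-Six1 with His-tagged Eya2 (added as 5X mix: 250 nM and 500 nM) in 50 mM Tris pH 8.0, 300 mM NaCl, 1 mM TCEP. Glutathione donor and nickel acceptor beads; 1 h, 37 °C, dark.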
PINK1 expr mod – modulators of PINK1 expression. PINK1 immunofluorescence, high-content cytometry, 24 h. Potency, µM (highest dose often 76.6 µM), inactives show at the highest dose activation (PINK1 increase), hits mostly activators. 410,000 tested, 0.2% active. AID 624263; active = well fitted activation curve with a large enough effect; inconclusive = small, poorly fitted or top-dose-only effect; inactive = flat fitted curve, though single readings scatter; cell line not stated here;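 note: potency is the fitted concentration of half-maximal effect; % of control where 0% means no effect; nearly all actives have a fitted effect of over 65% in size; a mitochondrial uncoupler was the plate control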
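Stable cell line, 250 cells/well, 12 h attachment; compounds pinned at 5 concentrations, 24 h; CCCP control. Fixed with nuclear dye, primary antibodies 12 h at 10 degrees C, secondary plus cell stain; laser-scanning cytometer read.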
D2 potentiator – human D2 receptor positive allosteric modulation. P14416. DiscoveRx D2 beta-arrestin cells, luminescence, 90 min; 100% = 57 uM dopamine signal. potentiation, % (concentration not given with the values). 360,000 tested, 0.23% active. AID 624464; active = potentiation of 50% or more; inconclusive = 30% to 50%; inactive = 30% or less;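 note: compound concentration not given in the record; tested on top of an EC20 dose of dopamine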
Target sequence (P14416 whole entry, looked up): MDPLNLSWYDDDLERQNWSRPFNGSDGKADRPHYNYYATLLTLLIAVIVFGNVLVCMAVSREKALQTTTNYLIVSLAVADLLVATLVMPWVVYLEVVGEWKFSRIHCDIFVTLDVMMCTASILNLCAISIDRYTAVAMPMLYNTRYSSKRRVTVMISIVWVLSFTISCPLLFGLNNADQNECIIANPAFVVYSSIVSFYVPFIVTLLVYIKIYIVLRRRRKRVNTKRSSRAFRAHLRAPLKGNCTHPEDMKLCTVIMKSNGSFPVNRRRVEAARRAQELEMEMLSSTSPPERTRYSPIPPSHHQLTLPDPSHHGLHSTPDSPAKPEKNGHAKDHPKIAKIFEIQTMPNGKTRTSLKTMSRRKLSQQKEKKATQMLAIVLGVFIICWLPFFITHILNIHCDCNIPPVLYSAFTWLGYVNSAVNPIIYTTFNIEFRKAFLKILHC
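D2 cells co-treated with compound plus 50 nM dopamine (EC20) for 90 min at 37 deg C to detect potentiation. Beta-arrestin recruitment was read as enzyme-fragment luminescence after 1 h at ambient temperature. Full response was set by 57 uM dopamine.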
D2 agonist – activates the human D2 dopamine receptor; P14416; DiscoveRx PathHunter D2 beta-arrestin, luminescence, 90 min; 100% = 57 uM dopamine signal; activation, % (test concentration not listed); 360,000 tested, 0.084% active; in the data active = activation above about 40%; inconclusive = about 15% to 40%; inactive = below about 15%; note: compound concentration not given in the record; the text of the record calls up to 30% inactive
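DiscoveRx PathHunter D2 beta-arrestin cells (2,100/well) attached overnight, then compound-stimulated 90 min at 37 C in HBSS/10 mM HEPES/0.1% Tween-20 buffer; beta-galactosidase complementation read by luminescence after 1 h at ambient temperature. Dopamine 57 uM final (EC100) as control.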
TRPML1 agonist – agonists of human TRPML1 channel | AID 624414 | Q9GZU1 | activation, % (no concentration beside the values) | TRPML1-expressing cells, Ca2+ dye fluorescence, FDSS; host cell line not named in the record; reference of the full effect not given here | 410,000 tested, 0.12% active; in the data active = activation above about 50%; inconclusive = about 30% to 50%; inactive = below about 30%; note: 0% is about no effect; the text of the record puts the active cut at 80%
Target sequence (Q9GZU1 whole entry, looked up): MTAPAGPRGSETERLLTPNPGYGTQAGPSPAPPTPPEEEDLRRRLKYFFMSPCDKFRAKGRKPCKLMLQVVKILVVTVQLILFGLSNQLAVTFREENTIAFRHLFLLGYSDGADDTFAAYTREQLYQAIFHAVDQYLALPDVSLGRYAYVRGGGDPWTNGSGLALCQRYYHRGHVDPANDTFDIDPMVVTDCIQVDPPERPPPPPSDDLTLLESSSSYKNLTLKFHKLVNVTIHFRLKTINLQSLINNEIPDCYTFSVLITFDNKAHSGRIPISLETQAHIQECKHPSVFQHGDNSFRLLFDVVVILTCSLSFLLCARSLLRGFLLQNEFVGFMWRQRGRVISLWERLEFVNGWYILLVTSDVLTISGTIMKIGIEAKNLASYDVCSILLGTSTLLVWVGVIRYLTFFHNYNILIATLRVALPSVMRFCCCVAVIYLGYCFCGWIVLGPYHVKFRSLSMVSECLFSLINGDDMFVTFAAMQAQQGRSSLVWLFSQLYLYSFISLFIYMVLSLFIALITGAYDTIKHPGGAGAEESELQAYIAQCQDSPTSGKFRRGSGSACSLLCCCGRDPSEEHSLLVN
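In this qHTS format, compounds were pin-transferred onto Ca8-dye-loaded TRPML1-DL cells induced with Tet overnight, and intracellular Ca2+ fluorescence was recorded kinetically for 110 s after a 10 s baseline. A subsequent 4uM final 54-4 (EC80) addition followed by a second 110 s read served as the antagonist phase.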
TRPML1 inh – inhibitors of human TRPML1 channel; Q9GZU1; TRPML1-inducible cells, Ca2+ dye fluorescence, FDSS; stronger effect = lower value; inhibition of EC80 agonist-evoked calcium signal; activity change, negative = inhibition, % (concentration not given with the values); 390,000 tested, 0.02% active; in the data active means activity change below about -50%; inconclusive means about -30% to -50%; inactive means above about -30%;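 note: stimulus is agonist 54-4 at its EC80 concentration; % is set by controls: 0 for no effect and ±100 for the full control effect; compound concentration not given in the record; the text of the record puts the active cut at -80%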
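TRPML1-DL cells, Tet-induced overnight (~16 h, 37 °C) at 1,500 cells/well, were loaded with Ca8 no-wash dye plus quencher for 45-90 min at room temperature. Compounds were pinned during FDSS kinetic reading; agonist 54-4 at EC80 (4 uM final) then added.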
* = called active by the depositor; ? = inconclusive; · = not tested or not shown; & = joins results of further samples; [ ] = remark or other dose.

SMILES | Six1-Eya2 blk | PINK1 expr mod | D2 potentiator | D2 agonist | TRPML1 agonist | TRPML1 inh
COCC1CCCN(C(=O)c2ccc3nc(Cc4cccc(Cl)c4)oc3c2)C1 (stereo unspecified) | 0.2 | 1.2% | 1.5 | -3.9 | 1.2 | 13.6
CCn1c(/C=C/c2cccc([N+](=O)[O-])c2)nc2ccccc2c1=O | 0.9 | 3.4% | 4.1 | -1.1 | 3.9 | -6.0
Cc1ccc(OC(=O)CSc2nnc(-c3ccc4c(c3)OCO4)o2)c(C)c1 | · | 0.8% | · | · | 3.1 | 14.3
N#Cc1ccc(NC(=S)/N=C(\N)c2ccccc2)cc1 | -0.3 | ? | -8.2 | -3.0 | -0.5 | ·
COc1cc(S(=O)(=O)N(Cc2ccc(C)cc2)Cc2ccco2)ccc1-n1cnnn1 | -6.1 | 1.7%[38.3 µM] | -22.2 | 0.4 | -0.1 | -2.3
O=C(Nc1ccnn1C1CCN(C2CCCCC2)CC1)c1cccc(F)c1 | 3.8 | 0.0% | -33.3 | 1.5 | 0.0 | 16.4
CC1Cn2c(nnc2C23CC4CC(CC(C4)C2)C3)S1 (stereo unspecified) | 1.8 | 1.5%[38.3 µM] | -2.8 | -2.2 | -0.6 | -1.0
O=C(NCc1ccco1)c1ccc(Oc2ccccc2)cc1 | -2.2 | 0.8% | 3.4 | 0.5 | 1.3 | 13.6
O=C(CN1C(=O)CC(c2ccccc2)S(=O)(=O)c2ccccc21)N1CCCC1 (stereo unspecified) | 24.1 | 0.8% | -21.9 | -5.0 | 0.0 | 6.4
COc1ccc(-c2nc(SCC(=O)NC3CCCC3)c(-c3ccc(F)cc3)[nH]2)cc1 | · | 1.7% | · | · | 2.4 | -12.8
CC(C)C(=O)O/N=C(\N)c1ccccn1 | 2.5 | 7.5% | -15.7 | -3.7 | -0.5 | -19.1
Cc1ccc(NC(=O)C(C)N2C(=O)c3ccccc3C2=O)c(C)c1 (stereo unspecified) | 5.3 | 0.9% | -0.2 | -5.7 | 0.6 | -2.7
CCOC(=O)[C@]12CCC=C1N(Cc1ccccc1)C(=O)[C@H](CC(=O)N1CCCC1)C2 | 24.2 | 0.7% | · | · | -0.6 | ·
COc1cc(/C=N/NC(=O)CNC(=O)c2ccco2)ccc1O | 3.5 | -0.2% | -7.2 | -5.6 | 1.2 | -3.5
CCOC(=O)c1nn(-c2ccc(F)cc2)cc1O | -1.3 | -0.1% | -6.0 | -6.8 | -0.2 | 1.3
O=C(CSc1cccc2cccnc12)N/N=C/c1cccnc1 | -80.7* | 19.3% | -8.4 | -6.9 | -0.8 | -12.6
COc1ccc(-n2c(N)c(C(=O)NCc3ccco3)c3nc4ccccc4nc32)cc1OC | -10.9 | 14.3% | -13.5 | -2.2 | 2.1 | 71.1
c1ccc(-c2cn3nc(-c4ccccc4)c(-c4ccccc4)nc3n2)cc1 | 68.3 | -0.7% | -2.5 | -5.6 | ? | -5.9
COCCn1c(SCc2ccc(OC)c(F)c2)nc2ccccc2c1=O | 6.1 | 1.9% | 3.9 | 6.0 | -0.1 | 6.8
O=C(Nc1ccccc1C(=O)Nc1ccccn1)c1ccc([N+](=O)[O-])cc1 | -10.2 | 3.4% | 12.5 | 3.0 | -1.6 | -3.6
COC(=O)c1ccccc1-n1c(CCC(=O)O)ccc1-c1ccc(F)cc1 | -2.0 | -2.2% | 56.0* | 8.9 | 3.9 | 15.0
Cc1cc(C)cc(NC(=O)c2ccc([N+](=O)[O-])o2)c1 | -24.9 | -3.8% | 18.8 | 8.1 | 1.3 | -15.3
CC1CCCCN1CCCNC(=O)c1nn(C)c2c1CS(=O)(=O)c1ccccc1-2 (stereo unspecified) | -2.7 | -0.3% | -20.9 | 0.1 | 0.0 | -16.0
C=CCN(C(=O)CCC(=O)Nc1cc(C)on1)C(C(=O)NC1CCCC1)c1ccc(C)cc1 (stereo unspecified) | 7.3 | -0.9% | -9.4 | -4.5 | 1.1 | -9.2
CCCN=CC1=C(O)CC(c2ccccc2)CC1=O (stereo unspecified) | 0.9 | -1.3% | 3.9 | -0.2 | -0.5 | -8.2
CCC(C(=O)Nc1ncc(C)s1)c1ccccc1 (stereo unspecified) | -0.6 | 0.0% | -9.0 | -0.5 | 1.5 | -4.7
COc1ccccc1-c1nc2c3c(-c4ccccc4)c(-c4ccccc4)oc3ncn2n1 | · | 1.7% | · | · | 0.7 | 5.3
CCOc1cc(NC(=S)NCCCN2CCOCC2)c(OCC)cc1NC(=O)CC(C)C | -3.3 | 5.6%[38.3 µM] | -11.4 | -0.3 | -1.0 | 4.4
O=C(CCCc1ccccc1)NCCS(=O)(=O)N1CCN(c2ccccc2F)CC1 | -3.9 | 0.3% | -27.6 | -6.1 | 0.0 | 11.7
COc1ccc(CCCNC(=O)C2Cc3c(-c4ccc5c(c4)OCO5)ccnc3O2)cc1 (stereo unspecified) | -10.1 | 2.2% | 1.4 | 6.9 | 0.0 | ·
Cc1ccc(C)c(N(CC(N)=O)S(C)(=O)=O)c1 | 6.2 | 0.1% | -18.4 | -2.4 | -0.5 | 3.7
COc1ccc(NC(=O)N2CCCC(c3ccccc3)C2)cc1 (stereo unspecified) | 1.2 | -2.1% | -1.6 | 9.0 | 3.3 | 6.0
CC(=O)Nc1ccc(-n2c(C)c(C(C)=O)c(C(C)=O)c2C)cc1 | -9.1 | -0.2% | -2.5 | 0.3 | -0.3 | -5.8
COc1ccccc1N(CCC#N)C(=O)CSc1ccc2c(c1)OCCO2 | -3.5 | 2.1%[38.3 µM] | -7.6 | -1.8 | -0.7 | 6.1
CCc1noc(C)c1C(=O)NNC(=O)c1ccc(F)cc1 | 9.9 | 1.4% | 16.9 | -2.4 | -0.5 | -19.0
CCN(CCNc1ccc(Cl)cc1[N+](=O)[O-])C(=O)c1cc([N+](=O)[O-])c(N(C)C)cc1OC | -11.5 | 2.0%[38.3 µM] | -20.5 | -5.3 | 2.5 | -0.7
C[C@@H](c1ccccc1)N1C[C@H](COCc2ccccc2)Oc2cc(N3CCC[C@H]3CO)ccc2S1(=O)=O | -14.7 | -0.1% | · | · | -0.1 | ·
O=C(Nc1ccc(S(=O)(=O)Nc2ccccn2)cc1)c1ccccc1 | 0.0 | 1.3% | 2.9 | -4.1 | -0.1 | 1.0
COc1ccc(NC(=O)CC2C(=O)N(c3ccc(Cl)cc3)C(=S)N2NC(=O)c2cccc(F)c2)cc1 (stereo unspecified) | -0.4 | ? | -34.1 | -4.0 | 0.6 | -4.6
CC(=O)c1ccc(NC(=O)Nc2sc3nc4n(c(=O)c3c2C)CCC(C)CC4)cc1 (stereo unspecified) | · | 1.8% | · | · | -1.0 | 17.6

Part of the list above, reformatted:
Results follow in this order: Six1-Eya2 blk	PINK1 expr mod	D2 potentiator	D2 agonist	TRPML1 agonist	TRPML1 inh
CC(=O)Nc1ccc(-n2c(C)c(C(C)=O)c(C(C)=O)c2C)cc1
  -9.1	-0.2%	-2.5	0.3	-0.3	-5.8
COc1ccccc1N(CCC#N)C(=O)CSc1ccc2c(c1)OCCO2
  -3.5	2.1%[38.3 µM]	-7.6	-1.8	-0.7	6.1

New compounds follow
SMILES | Six1-Eya2 blk | PINK1 expr mod | D2 potentiator | D2 agonist | TRPML1 agonist | TRPML1 inh
COc1cc(O)c(C(CC(=O)N2CCCC(C)C2)c2cc(OC)c(OC)c(OC)c2)c(OC)c1 (stereo unspecified) | 1.2 | 0.8% | -8.8 | -3.0 | 1.1&1.3 | -2.0&3.6
CCNC(=S)NNC(=O)c1ccc2ncccc2c1 | 1.3 | -1.5% | -7.2 | -5.2 | 0.4 | 0.1
COc1cccc(-n2cnc3c(sc4nc(N5CCOCC5)c5c(c43)CCCC5)c2=O)c1 | -0.1 | 1.5% | -7.2 | -4.8 | -0.3 | -7.6
Cc1ccccc1C(=O)NC(=S)Nc1sc2c(c1C#N)CCC(C)C2 (stereo unspecified) | -5.5 | 0.3% | 0.3 | -2.1 | -0.3 | -0.1
CC(=O)N(C)c1ccc(N=NC2C(=O)N(C(N)=S)N=C2C)cc1 (stereo unspecified) | -5.5 | 3.3% | -11.1 | -5.8 | -0.8 | 23.4
c1ccc(Oc2cc(-n3cccn3)ncn2)cc1 | 15.7 | -1.6% | 3.5 | -1.1 | -0.6 | 3.3
CC(/C=N/NC(=O)c1cccs1)=C\c1ccco1 | -1.8 | 0.9% | -0.1 | -1.3 | -0.3 | -3.8
O=C(N/N=C/c1ccc2c(c1)OCO2)c1cc2ccccc2o1 | 2.7 | -1.0% | -16.7 | -1.0 | 0.9 | 24.6
COc1ccc(-n2c(CN3CCOCC3)nc3ccc([N+](=O)[O-])cc3c2=O)c(OC)c1 | -6.6 | 2.5% | -3.8 | 3.9 | 0.6 | 4.2
Cn1c(NCCc2ccncc2)nc2cc(-c3cccc(Cl)c3)sc2c1=O | 6.2 | 0.4% | 2.6 | ? | -0.6 | ·
Cc1ccc(C)c(Cn2c(C(=O)O)c(CNCc3cccs3)c3ccccc32)c1 | · | 0.5% | · | · | -0.5 | 9.3
COc1cccc(C(=O)N2CCCc3ccccc32)c1 | 7.0 | 9.8%[38.3 µM] | -17.0 | -3.0 | -0.3 | 13.0
Cc1cc(C)cc(NC(=O)COc2coc(CN3CCN(c4ccccc4)CC3)cc2=O)c1 | -2.0 | 17.0% | -9.4 | 2.0 | 1.9 | 7.7
CCc1cc2c(Nc3ccccc3O)nc(C)nc2s1 | 2.5 | 10.0% | -3.2 | 1.4 | 1.3 | 30.9
O=C1/C(=C/c2ccc3c(c2)OCO3)SC(=S)N1CCC(=O)N(CCO)c1ccccc1 | -15.8 | 6.5% | -9.2 | -1.3 | 0.1 | 21.6
COc1c2n(C)ccc3c-2n(c(=O)c1=O)c1ccccc31 | -27.2 | 4.2% | -3.6 | -9.5 | 0.1 | 8.5
Cc1ccc(OCc2cc(C(=O)NCC(C)c3ccccc3)no2)cc1C (stereo unspecified) | 23.0 | -0.5% | -19.2 | 1.9 | 0.8 | -19.0
CCc1cc(C(=O)N2CCCC(CNC(=O)c3ccc(-c4ccccc4)cc3)C2)no1 (stereo unspecified) | -1.9 | 1.9% | -4.7 | 3.3 | 0.7 | -1.2
CCOCCc1nnc(NC(=O)c2cc(OC)c(OC)cc2[N+](=O)[O-])s1 | 4.4 | 3.8% | -5.8 | -0.8 | 0.4 | -18.3

3 compounds picked at random from the list so far, as already listed:
SMILES | Six1-Eya2 blk | PINK1 expr mod | D2 potentiator | D2 agonist | TRPML1 agonist | TRPML1 inh
CCc1cc(C(=O)N2CCCC(CNC(=O)c3ccc(-c4ccccc4)cc3)C2)no1 (stereo unspecified) | -1.9 | 1.9% | -4.7 | 3.3 | 0.7 | -1.2
Cc1ccc(OCc2cc(C(=O)NCC(C)c3ccccc3)no2)cc1C (stereo unspecified) | 23.0 | -0.5% | -19.2 | 1.9 | 0.8 | -19.0
COc1cccc(C(=O)N2CCCc3ccccc32)c1 | 7.0 | 9.8%[38.3 µM] | -17.0 | -3.0 | -0.3 | 13.0
